# Compound activity deposited in PubChem by National Center for Advancing Translational Sciences (NCATS).
# TRPML1 blocker = human mucolipin-1 channel inhibition; activity change, negative = inhibition, % (concentration not given with the values); TRPML1-inducible cells, Ca2+ dye fluorescence, FDSS; stronger effect = lower value; inhibition of EC80 agonist-evoked calcium signal; 390,000 tested, 0.02% active; Q9GZU1; in the data active means activity change below about -50%; inconclusive means about -30% to -50%; inactive means above about -30%;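 further: stimulus is agonist 54-4 at its EC80 concentration; on the % scale 0 is the no-effect control and ±100 the full control effect; compound concentration not given in the record; the text of the record puts the active cut at -80%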
# Target sequence (Q9GZU1 whole entry, looked up): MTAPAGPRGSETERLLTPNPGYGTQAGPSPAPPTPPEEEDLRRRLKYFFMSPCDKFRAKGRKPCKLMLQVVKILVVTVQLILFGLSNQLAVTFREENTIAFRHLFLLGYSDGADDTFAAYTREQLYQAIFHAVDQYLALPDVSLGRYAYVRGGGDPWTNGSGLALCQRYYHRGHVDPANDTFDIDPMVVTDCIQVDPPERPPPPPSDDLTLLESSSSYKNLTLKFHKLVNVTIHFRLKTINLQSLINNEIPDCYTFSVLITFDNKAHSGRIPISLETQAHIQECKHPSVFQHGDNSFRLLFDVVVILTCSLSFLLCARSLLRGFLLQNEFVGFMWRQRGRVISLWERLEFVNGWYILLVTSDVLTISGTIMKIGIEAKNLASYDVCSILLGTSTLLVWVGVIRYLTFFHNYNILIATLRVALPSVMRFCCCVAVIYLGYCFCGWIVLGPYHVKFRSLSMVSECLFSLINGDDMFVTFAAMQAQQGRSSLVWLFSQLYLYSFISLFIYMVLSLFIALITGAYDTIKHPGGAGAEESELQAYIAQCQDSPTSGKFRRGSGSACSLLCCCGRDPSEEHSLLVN
#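 TRPML1-DL cells, Tet-induced overnight (~16 h, 37 °C) at 1,500 cells/well, were loaded with Ca8 no-wash dye plus quencher for 45-90 min at room temperature. Compounds were pinned during FDSS kinetic reading; agonist 54-4 at EC80 (4 uM final) then added.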
# gsp ag = agonists of gsp mutant (McCune-Albright syndrome) | 340,000 tested, 0.13% active | gsp mutant cells, cAMP HTRF, 30 min; control for the full effect not named in the record | Potency, µM (doses to about 76.9 µM), without a hit: top-dose activation (cAMP increase), hits mostly activators; active = well fitted activation curve with a large enough effect; inconclusive = small, poorly fitted or top-dose-only effect, or another doubt; inactive = no such curve, though single readings can be large or run the other way; cell line not stated here;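 further: phosphodiesterase inhibitor Ro 20-1724 added with compounds to block cAMP breakdown; potency means the concentration at half of the fitted maximal effect; nearly all actives have a fitted effect of over 60% in size; about a fifth of the inactives were tested at one dose only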
#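 Cells in DMEM/10% FBS with G418 were pretreated with compounds in DMSO plus […] (300 uM stock) for 30 min at 37C. cAMP was measured by HTRF (cAMP-d2 plus anti-cAMP antibody-K) after 30 min at room temperature.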
# ClpP mod = qHTS Assay for Activators of ClpP. Potency, µM (series often up to 57.5 µM), without a hit: at the highest dose activity change, negative = active. 340,000 tested, 1.9% active. purified B. subtilis ClpP, FRET peptide cleavage, 20 min. ATP-dependent Clp protease proteolytic subunit (Bacillus subtilis (strain 168)), P80244; active = well fitted falling curve with a large enough effect; inconclusive = small, poorly fitted or top-dose-only effect; inactive = no such curve, though single readings can be large or run the other way; further: potency means the concentration at half of the fitted maximal effect; the source files actives as falling curves though it sought activators and does not explain the sign; nearly all actives have a fitted effect of over 65% in size; many hits overshoot -100%
# Target sequence (P80244 whole entry, looked up): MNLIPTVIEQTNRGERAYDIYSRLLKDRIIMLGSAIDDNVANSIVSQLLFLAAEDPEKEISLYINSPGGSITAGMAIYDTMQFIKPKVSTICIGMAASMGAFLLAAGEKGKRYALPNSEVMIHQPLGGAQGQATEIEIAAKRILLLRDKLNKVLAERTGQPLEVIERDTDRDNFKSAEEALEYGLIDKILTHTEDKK
#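 Buffer: 100 mM Tris/HCl pH8, 100 mM KCl, 0.05% low protease BSA, 2.5% glycerol, 0.01% Tween-20. ClpP 10 microg/mL final; 20 min RT; delta FRET normalized to ADEP and DMSO controls.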
# gsp antagonist = antagonizes gsp, the McCune-Albright syndrome mutation | AID 624288 | Potency, µM (series often up to 76.9 µM), for the others: at the highest dose activity change, negative = inhibition, most hits filed as inhibitors | 340,000 tested, 0.4% active | gsp-mutant cells, cAMP HTRF, 30 min; control for the full effect not named in the record; active = falling curve of any shape with a large fitted effect; inconclusive = falling curve, mostly with a smaller effect; inactive = flat or rising curve; cell line not stated here;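 further: intracellular cAMP measured with PDE inhibitor Ro 20-1724 present during compound exposure; potency means the concentration at half of the fitted maximal effect; on the % scale 0 is the no-effect control and ±100 the full control effect; nearly all actives have a fitted effect of over 65% in size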
#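 Cells, 2000/well, grown 16–24 h in DMEM 10% FBS with 0.5 mg/ml G418, then compounds plus […] (300 uM addition stock), 30 min at 37C. cAMP read by HTRF (cAMP-d2 and anti-cAMP antibody-K in lysis buffer) after 30 min RT.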
# TRPML1 agonist = agonists of human TRPML1 channel | Q9GZU1 | TRPML1-expressing cells, Ca2+ dye fluorescence, FDSS; host cell line not named in the record; reference of the full effect not given here | activation, % (concentration not given with the values) | 410,000 tested, 0.12% active; in the data active = activation above about 50%; inconclusive = about 30% to 50%; inactive = below about 30%; further: 0% is about no effect; the text of the record puts the active cut at 80%
#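 TRPML1-DL cells, Tet-induced overnight (~16 h, 37 degrees C), loaded 45-90 min at room temperature with Ca8 no-wash calcium dye plus quencher. FDSS fluorescence: 10 s baseline, compound pin-transfer, 110 s agonist read, then EC80 54-4 (4uM final) and 110 s antagonist read.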
# Menin MLL FP FL = inhibitors of human menin-MLL interaction, wild-type MLL peptide. Fluorescence polarization, fluorescein-MLL peptide displacement from menin. FP activity change, % at 61.4 µM. 290,000 tested, under 10 active. AID 1766; inconclusive = falling polarisation curve, or a change in total fluorescence; inactive = total fluorescence flat and polarisation flat or rising; no compound was filed as active; the % refers to the polarisation; negative = inhibition;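 further: % of control where 0% means no effect; inhibitors lower the polarisation; unlabelled MLL peptide was the positive control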
# Numbers without * were called inactive; ? = inconclusive; / = not tested or not shown; & = joins results of further samples; [ ] = dose if it differs, or a comment.
structure	TRPML1 blocker	gsp ag	ClpP mod	gsp antagonist	TRPML1 agonist	Menin MLL FP FL
COc1ccc(C(=O)Nc2ccc(-c3cc(C(F)(F)F)nn3-c3ccccc3)cc2)cc1OC	20	/	5.4%	/	1.6	/
c1ccc(C[n+]2c(-c3ccccc3)csc2Nc2ccccc2)cc1	-19	19%	?	-26%	1.6	0.9
O=C(O)c1ccc(S(=O)(=O)N2CCC3(CC2)CC(=O)c2ccccc2O3)cc1	-11	-26%	32µM*	6%	0.3	/
CCN(CC)C(=S)Oc1ccc(Cl)cc1Cl	-11	27%	/	-1%	1.7	1.1
CCOCCN(C(=O)c1ccccc1Cl)c1ccccc1	-1	-1%[15.4 µM]	-1.6%	0%	-0.6	-1.9
CC(C)c1ccc(NC(=O)c2cc(S(=O)(=O)NCC3COc4ccccc4O3)ccc2F)cc1 (stereo not drawn)	3	7%	-5.6%	-3%	2.3	4.9
CSc1ccc(/C=C/C(=O)OCC(=O)NC2CCS(=O)(=O)C2)cc1 (stereo not drawn)	28	3%	3.4%	-13%	4.3	/
O=C(NC1CC1)C1CCN(S(=O)(=O)c2ccc(Cl)cc2)CC1	-14	-8%[15.4 µM]	/	-3%	-0.4	0.1
Clc1ccccc1OCCCn1ccnc1	6	18%	-0.2%	13%	0.0	-4.8
COc1ccc(NC(=O)c2cnn(-c3ccc(F)cc3F)c2C2CCN(C(=O)OC(C)(C)C)CC2)cc1Cl	-15	/	-18%	/	0.6	/

# 3 consecutive entries from above, for reference:
structure	TRPML1 blocker	gsp ag	ClpP mod	gsp antagonist	TRPML1 agonist	Menin MLL FP FL
COc1ccc(C(=O)Nc2ccc(-c3cc(C(F)(F)F)nn3-c3ccccc3)cc2)cc1OC	20	/	5.4%	/	1.6	/
c1ccc(C[n+]2c(-c3ccccc3)csc2Nc2ccccc2)cc1	-19	19%	?	-26%	1.6	0.9
O=C(O)c1ccc(S(=O)(=O)N2CCC3(CC2)CC(=O)c2ccccc2O3)cc1	-11	-26%	32µM*	6%	0.3	/

# (more compounds)
structure	TRPML1 blocker	gsp ag	ClpP mod	gsp antagonist	TRPML1 agonist	Menin MLL FP FL
Cc1cccc(-c2nc(CCNC(=O)c3ccc(Br)o3)cs2)c1	-24	/	-1.6%	/	3.9	/
CCCC(C(=O)NNC(=O)c1cc(C)oc1C)c1ccccc1 (stereo not drawn)	-9	3%[15.4 µM]	0.5%	5%	-0.7	/
COc1ccc(-c2ccc(NS(=O)(=O)c3ccc(NC(C)=O)cc3)cc2)nn1	-10	/	-0.3%	/	-0.1	/
CC(C)C(=O)Nc1nc2cc3c(cc2s1)OCO3	3	-67%[inhibitor]	-1.1%	4%	0.1	1.7
CCC1CCCCN1CCCNC(=O)c1cn(CC)c2ccc(S(=O)(=O)N3CCc4ccccc4C3)cc2c1=O (stereo not drawn)	-20	-1%	/	-9%	0.1	2.6
Cc1ccc(S(=O)(=O)Nc2cc(-c3ccccc3)nn2C)cc1Cl	3	-14%	/	-28%	0.3	0.1
O=C(O)/C=C/C(=O)OC1CC2CCC1C2 (stereo not drawn)	-17	-8%[15.4 µM]	/	7%	1.0	-0.8
Cc1ccc(-n2c(=S)[nH]c3c(oc4ccccc43)c2=O)cc1	-11	5.6µM*	-2.9%	10%	-0.6	9.1
CCOCCCn1c(=N)c(C(=O)NCc2ccccc2)cc2c(=O)n3ccccc3nc21	-2	/	3.7%	/	-0.8	/
Cc1ccc(/C=N/Nc2cccc(C(=O)O)c2)s1	15	-25%	29%	-4%	-0.3	5.6

# (listing goes on)
structure	TRPML1 blocker	gsp ag	ClpP mod	gsp antagonist	TRPML1 agonist	Menin MLL FP FL
CCOC(=O)CSc1ccc2nnc(CCNS(=O)(=O)c3ccc(C)cc3)n2n1	3	-11%	-28%	-14%	1.4	0.7
O=C1C(CN2CCCC2)CCCC1CN1CCCC1 (stereo not drawn)	-5	-23%	1.7%	3%	-0.5	/
CCOC(=O)Cn1nc(C)cc1NC(=O)c1cccnc1	0	1%[15.4 µM]	-2.9%	2%	-1.6	0.0
C/C=N/NC(=O)CCNC(=O)c1ccccc1	-3	-62%[inhibitor]	-4.0%	9%	-0.3	1.1
COC/C=C/C1=CC2=CC(=O)C(C)(OC(=O)c3cnc4ccccc4n3)C(=O)C2=CN1C1CC1 (stereo not drawn)	-9	-9%	1.2%	-12%	-0.3	-4.4[11.7 µM]
Cc1ccc(Nc2c(F)c(F)c(F)c(F)c2C(=O)O)cc1	14	-28%	/	-6%	0.2	2.1
COc1cc(-c2ccc3sc(-c4ccsc4)c(C#CCO)c3c2)cc(OC)c1OC	9	-3%	4.1%	-3%	-0.4	/
COC(=O)[C@H](C)NC(=O)Nc1ccc(OC)cc1OC	-2	5%	-0.5%	-14%	-0.6	0.6
COc1ccc(CC(=O)N(C)C2CCCCC2)cc1S(=O)(=O)N1CCOCC1	-9	1%[15.4 µM]	/	7%	0.4	-0.9
COCCN1C2=C(C(=O)CC(C)(C)C2)C(c2ccc(OC)c(OC)c2)C2=C1CC(C)(C)CC2=O	32	7%[15.4 µM]	10µM*	0%	-0.9	-1.6

# Other entries:
structure	TRPML1 blocker	gsp ag	ClpP mod	gsp antagonist	TRPML1 agonist	Menin MLL FP FL
COc1ccc(Nc2cc(C(=O)NCCCN3CCN(C)CC3)c3ccccc3n2)c(OC)c1	34	7%	-2.0%	-3%	0.4	-0.3
CC(=O)c1c(N2CCOCC2)nc(=S)n(-c2ccc([N+](=O)[O-])cc2)c1C	17	5%	-0.9%	6%	-0.7	0.4
COC(=O)CN1C(=O)N/C(=C/c2cc(OC)c(OC)cc2C)C1=O	16	19%	2.0%	7%	-0.6	-0.4
CCOc1ccc(C(=O)NC(=S)Nc2ccc(NC(=O)c3ccco3)cc2)cc1[N+](=O)[O-]	-1	-2%	1.0%	15%	-0.6	-0.6
CC(C)COC(=O)N(C)C[C@H]1OCc2cnnn2CCCC(=O)N([C@H](C)CO)C[C@H]1C	-5	-52%[inhibitor]	-2.9%	/	0.1	/
CCOC(=O)c1cnc(-n2nc(C)cc2C)nc1Nc1cccc(C(=O)O)c1	2	19%	-6.5%	-8%	0.7	-0.5
COc1ccc(-c2nnc(NC(=O)c3ccc(S(=O)(=O)N4CCCc5ccccc54)cc3)o2)cc1	-7	-1%	-4.7%&-6.4%	?	0.0	-1.4
O=C(NC1=NCCS1)c1ccc(Cl)s1	-3	-4%	-2.3%	8%	0.2	3.3
Cc1ccccc1CNC(=O)c1ccc2c(c1)N(Cc1ccccc1)CCS2	9	/	4.7%	/	1.9	/
COC(=O)c1ccccc1NC(=O)CN1CCCCC1	1	1%	-7.7%	-9%	1.2	0.5

# Next results follow:
structure	TRPML1 blocker	gsp ag	ClpP mod	gsp antagonist	TRPML1 agonist	Menin MLL FP FL
CCOc1nc(OCC)nc(N2CCC(C)CC2)n1	11	-26%	0.4%	-3%	0.0	4.0
CN1CCC(OC(=O)c2cc3cc(Br)ccc3oc2=O)CC1	18	-11%	/	7%	0.4	2.9
Cc1ccc(CN(Cc2ccco2)c2cnc(S(C)(=O)=O)nc2C(=O)Nc2ccc(Br)cc2)o1	44	/	-10%	/	2.2	/
Cc1cnc(C(=O)OCC(=O)Nc2oc(-c3ccccc3)c(-c3ccccc3)c2C#N)cn1	-7	-19%	-8.7%	-12%	-0.7	1.5
O=C(N/N=C/c1ccc2cccc(OCc3ccccc3)c2n1)c1ccc(Cl)cc1	0	-1%	154%	-6%	1.3	5.6
NC1=NC[C@@H](CC2CCCCC2)N1CCc1cc(C(F)(F)F)cc(C(F)(F)F)c1	10	/	2.8%	16%	-0.4	/
Clc1cccc(N2CCN(CCCN3CCN(c4ccccc4)CC3)CC2)c1	4	-10%	/	7%	-0.6	/
Cc1ccc(-c2c(CN3CCN(c4cccc(C(F)(F)F)c4)CC3)csc2C)cc1	-3	/	-15%	/	-0.8	/
CC(=O)c1ccc(NC(=O)/C(=C\c2ccccc2)NC(=O)/C=C/c2ccccc2)cc1	-9	-23%	-6.9%	1%	0.1	4.7
CCOC(=O)[C@H]1O[C@@H]1C(=O)N[C@@H](CC(C)C)C(=O)NCCC(C)C	-14	/	?	38%[activator]	-0.5	-1.3

# Other compounds.
structure	TRPML1 blocker	gsp ag	ClpP mod	gsp antagonist	TRPML1 agonist	Menin MLL FP FL
CCCC(=O)Nc1ccc(C(=O)Nc2nnc(COC)s2)cc1	20	28%	-3.8%	-8%	-0.3	2.3
NC(=O)NN=C(C1CC1)C1CC1	-24	-17%	/	13%	0.0	/
C(=NCCCN1CCOCC1)c1ccc2c(c1)OCO2	11	-41%	-3.9%	5%	0.6	-2.5
CC1(C)O[C@@H]2[C@H](O1)[C@@H](COS(=O)(=O)O)O[C@H]2n1ccc(=O)[nH]c1=O	4	/	-0.7%	1%	-0.6	/
COC(=O)c1sccc1N/C=C(\C#N)S(=O)(=O)C(C)(C)C	0	-3%[15.4 µM]	-28%	-11%	-0.3	4.4
Cc1cc(Br)ccc1OCCCCN1CCC(C)CC1	7	-2%	1.8%	14%	0.1	7.2
O=C(Nc1ccccc1)N(C1=NCCC1)c1ccc(OC(F)F)cc1	-1	0%	-3.3%	-5%	23	-2.1
Cc1cc(C)c(NC(=O)CSc2nnc(CNC(=O)c3c(F)cccc3Cl)o2)c(C)c1	-12	?	0.7%	4%	-0.9	/
CCn1nnc2cc(C(=O)Nc3cccc(Cl)c3C)ccc21	-12	/	-0.9%	/	1.2	/
O=C(OC1CCOC1=O)c1cc(-c2ccc(Cl)cc2)nc2ccccc12 (stereo not drawn)	-20	?	-1.9%	-4%	0.9	3.9

# Next part:
structure	TRPML1 blocker	gsp ag	ClpP mod	gsp antagonist	TRPML1 agonist	Menin MLL FP FL
Cc1ccc(CNC(=O)N2CCN(C)CC2)cc1	4	-30%	1.1%	10%	0.0	6.0
Cc1ccc(Cl)cc1NC(=O)CC1Sc2ccccc2NC1=O (stereo not drawn)	-3	/	-2.9%	/	-1.0	/
CCOC(=O)c1cc(NC(=O)CNCC(c2ccccc2)N(C)C)cc(C(=O)OCC)c1 (stereo not drawn)	-8	10%	/	-4%	-0.3	0.0
Cn1c(CN2CCOCC2)nnc1SCc1ccc(C#N)cc1	1	-17%	0.1%	11%	-0.4	-1.3
CC1(C)Cc2c(sc(NC(=O)C(=O)NCC3CCCO3)c2C(N)=O)CO1 (stereo not drawn)	9	-12%	0.7%	6%	-0.3	/
CCOc1ccc(N2C(=O)/C(=C/c3ccccn3)SC2=S)cc1	-8	-6%[15.4 µM]	1.3%	2%	-0.2	-1.2
COc1cc2[nH]c(O)c(C=O)c2cc1OC	2	-14%	/	-5%	0.1	/
